Menin MLL FP FL = qHTS Assay for Inhibitors Targeting the Menin-MLL Interaction in MLL Related Leukemias: Competition With Fluorescein Labeled MLL-derived Peptide | AID 1766, 2009 | 290,000 tested, under 10 active | Fluorescence polarization, fluorescein-MLL peptide displacement from menin | FP activity change, % at 61.4 µM; inconclusive = falling polarisation curve, or a change in total fluorescence; inactive = total fluorescence flat and polarisation flat or rising; no compound was filed as active; the % refers to the polarisation; negative = inhibition;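 note: % of control where 0% means no effect; inhibitors lower the polarisation; unlabelled MLL peptide was the positive control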
TRPML1 ag = qHTS for Agonists of the Human Mucolipin Transient Receptor Potential 1 (TRPML1) | TRPML1-expressing cells, Ca2+ dye fluorescence, FDSS; host cell line not named in the record; reference of the full effect not given here | activation, % (test concentration not listed) | hit rate 0.12% among 410,000; in the data active = activation above about 50%; inconclusive = about 30% to 50%; inactive = below about 30%; note: 0% is about no effect; the text of the record puts the active cut at 80%
Target sequence (Q9GZU1 whole entry, looked up): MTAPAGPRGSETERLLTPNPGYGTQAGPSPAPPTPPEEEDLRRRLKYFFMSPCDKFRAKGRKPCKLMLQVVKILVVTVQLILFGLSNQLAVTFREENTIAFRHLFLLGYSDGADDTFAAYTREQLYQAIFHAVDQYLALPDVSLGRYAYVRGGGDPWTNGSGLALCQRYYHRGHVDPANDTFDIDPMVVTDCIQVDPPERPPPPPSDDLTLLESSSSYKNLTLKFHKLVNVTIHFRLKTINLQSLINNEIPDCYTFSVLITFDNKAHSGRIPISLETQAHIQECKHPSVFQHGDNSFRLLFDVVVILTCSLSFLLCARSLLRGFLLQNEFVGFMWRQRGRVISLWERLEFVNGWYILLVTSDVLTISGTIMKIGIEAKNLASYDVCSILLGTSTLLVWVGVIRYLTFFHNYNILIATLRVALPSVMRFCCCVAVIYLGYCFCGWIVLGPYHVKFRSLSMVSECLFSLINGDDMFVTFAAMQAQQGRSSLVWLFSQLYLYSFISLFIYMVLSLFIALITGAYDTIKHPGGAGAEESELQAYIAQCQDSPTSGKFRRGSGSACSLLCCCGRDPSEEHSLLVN
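TRPML1-DL cells, Tet-induced overnight (~16 h, 37 degrees C), loaded 45-90 min at room temperature with Ca8 no-wash calcium dye plus quencher. FDSS fluorescence: 10 s baseline, compound pin-transfer, 110 s agonist read, then EC80 54-4 (4uM final) and 110 s antagonist read.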
TRPML1 inh = qHTS for Inhibitors of the Human Mucolipin Transient Receptor Potential 1 (TRPML1). Mucolipin-1 (Homo sapiens), Q9GZU1. TRPML1-inducible cells, Ca2+ dye fluorescence, FDSS; hits give low values; inhibition of EC80 agonist-evoked calcium signal. activity change, negative = inhibition, % (concentration not given with the values). hit rate 0.02% among 390,000; in the data active means activity change below about -50%; inconclusive means about -30% to -50%; inactive means above about -30%;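 note: stimulus is agonist 54-4 at its EC80 concentration; % is set by controls: 0 for no effect and ±100 for the full control effect; compound concentration not given in the record; the text of the record puts the active cut at -80%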
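TRPML1-DL cells, Tet-induced overnight (~16 h, 37 °C) at 1,500 cells/well, were loaded with Ca8 no-wash dye plus quencher for 45-90 min at room temperature. Compounds were pinned during FDSS kinetic reading; agonist 54-4 at EC80 (4 uM final) then added.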
gsp antagonist = qHTS for Antagonists of gsp, the Etiologic Mutation Responsible for Fibrous Dysplasia/McCune-Albright Syndrome: qHTS; gsp-mutant cells, cAMP HTRF, 30 min; control for the full effect not named in the record; Potency, µM (top dose mostly 76.9 µM), without a hit: at the top dose activity change, negative = inhibition, hits mostly inhibitors; hit rate 0.4% among 340,000; active = falling curve of any shape with a large fitted effect; inconclusive = falling curve, mostly with a smaller effect; inactive = flat or rising curve; cell line not stated here;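 note: intracellular cAMP measured with PDE inhibitor Ro 20-1724 present during compound exposure; potency is the fitted concentration of half-maximal effect; % is set by controls: 0 for no effect and ±100 for the full control effect; nearly all actives have a fitted effect of over 65% in size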
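Cells in G418 medium, seeded 16-24 h, 37C; buffer exchange to DPBS + 1 mM CaCl2, 0.5 mM MgCl2, 0.05% BSA; cpds in DMSO + […] (300 uM stock), 30 min 37C; HTRF cAMP detection.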
ClpP mod = qHTS Assay for Activators of ClpP. ATP-dependent Clp protease proteolytic subunit (Bacillus subtilis (strain 168)), P80244. purified B. subtilis ClpP, FRET peptide cleavage, 20 min. Potency, µM (titrated, usually from 57.5 µM), for inactives: top-dose activity change, negative = active. hit rate 1.9% among 340,000. AID 651965, 2013; active = well fitted falling curve with a large enough effect; inconclusive = small, poorly fitted or top-dose-only effect; inactive = no such curve, though single readings can be large or run the other way; note: potency is the fitted concentration of half-maximal effect; the source files actives as falling curves though it sought activators and does not explain the sign; nearly all actives have a fitted effect of over 65% in size; many hits overshoot -100%
Target sequence (P80244 whole entry, looked up): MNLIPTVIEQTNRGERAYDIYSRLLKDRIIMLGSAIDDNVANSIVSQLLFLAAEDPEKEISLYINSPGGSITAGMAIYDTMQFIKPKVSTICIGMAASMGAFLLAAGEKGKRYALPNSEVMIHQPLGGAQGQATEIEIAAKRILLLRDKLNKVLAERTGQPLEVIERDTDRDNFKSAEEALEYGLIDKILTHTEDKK
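ClpP 10 microg/mL final, pH 8 Tris/KCl buffer with BSA, glycerol, Tween-20; compound pinned in; FRET-FV substrate; RT 20 min; Ex320/Em430; ΔFRET vs ADEP 5.8 microM, DMSO, no enzyme.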
gsp agonist = qHTS for Agonist of gsp, the Etiologic Mutation Responsible for Fibrous Dysplasia/McCune-Albright Syndrome: qHTS; gsp mutant cells, cAMP HTRF, 30 min; control for the full effect not named in the record; Potency, µM (titrated, usually from 76.9 µM), for inactives: at the highest dose activation (cAMP increase), actives largely listed as activators; hit rate 0.13% among 340,000; AID 624287, 2012; active = well fitted activation curve with a large enough effect; inconclusive = small, poorly fitted or top-dose-only effect, or another doubt; inactive = no such curve, though single readings can be large or run the other way; cell line not stated here;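 note: phosphodiesterase inhibitor Ro 20-1724 added with compounds to block cAMP breakdown; potency is the fitted concentration of half-maximal effect; nearly all actives have a fitted effect of over 60% in size; about a fifth of the inactives were tested at one dose only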
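Cells stably selected in G418 were plated at 2000/well, grown 16-24 hr, then given compounds in DMSO with the PDE inhibitor […] (300 uM solution added) for 30 min at 37C; cAMP was read by HTRF.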
An asterisk follows results filed as active; ? = inconclusive; / = no result given; & = joins results of further samples; [ ] = remark or other dose.

#	Structure	TRPML1 ag	gsp antagonist	Menin MLL FP FL	ClpP mod	TRPML1 inh	gsp agonist
1	CCNC(=O)c1ccc(N(C)S(=O)(=O)c2cccs2)cc1	0.0	2%	2.3	/	-5	-5%
2	COc1ccc(C(=O)Nc2cccc(/C=C(\CCC(=O)O)c3nc4ccccc4s3)c2)cc1	/	?	4.0	4.3%	/	14%
3	O=S(=O)(NCc1cccnc1)c1ccc(Br)c2ccccc12	0.0	-4%	-7.0	/	-12	22%[15.4 µM]
4	FC(F)(F)c1cc(Oc2ccc(Cl)cc2)nc(-c2ccccn2)n1	-0.7	4%	-0.9	2.4%	8	-6%
5	Cc1nnc(NC(=O)c2ccncc2)s1	-0.7	-8%	1.0	1.6%	4	-20%
6	COc1ccc2c(C)c(CCC(=O)NCCc3ccccc3OC)c(=O)oc2c1	-0.9	/	/	4.1%	0	/
7	Cc1nn(-c2ccccc2)c2c1cc1c(=O)[nH]c(=O)nc-1n2-c1cccc(C(F)(F)F)c1	0.3	/	/	3.3%	-13	/
8	CC1CCC2(CC1)NC(=O)N(CC(=O)Nc1cc(S(=O)(=O)N3CCCC3)ccc1Cl)C2=O (configuration not stated)	-0.6	0%	/	/	-6	-49%[inhibitor]
9	Cc1ccc(NC(=O)CCC(=O)NNC(=O)c2cccs2)cc1C	0.4	7%	2.9	0.3%	-5	-30%
10	Fc1ccc(CN2CCN(C(=S)NCCc3ccccc3)CC2)c(Cl)c1	-1.2	-1%	2.7	-0.2%	14	7%[15.4 µM]
11	Cc1cnc(CN(C)C(=O)CC2C(=O)NCCN2Cc2cccc(F)c2F)[nH]1 (configuration not stated)	0.7	3%	/	-3.3%	7	1%[15.4 µM]
12	COc1cccc(/C=N/NC(=O)c2c(C)nc3ccc(Cl)cn23)c1O	4.0	-6%	?	/	10	8%
13	CC(C)c1ccc(-c2nnn(CCC#N)n2)cc1	0.1	5%	-3.4	/	3	23%[15.4 µM]
14	COc1cc(NS(=O)(=O)c2ccc(NC(C)=O)cc2)ncn1	0.3	7%	3.1	-1.5%	12	?
15	Cc1cccc(-c2cc(C(=O)Nc3cccnc3)c3ccccc3n2)c1	0.0	-25%	/	1.0%	16	-6%[15.4 µM]
16	O=C(C1CCCCN1S(=O)(=O)c1ccccc1)N1CCN(Cc2ccccc2)CC1 (configuration not stated)	0.1	8%	0.1	0.3%	8	3%
17	CC(/C=N/NC(=O)c1cccnc1)=C\c1ccccc1	0.3	-4%	2.0	/	-16	-9%[15.4 µM]
18	CCOc1ccccc1NC(=O)CN(c1ccc(OC)c(OC)c1)S(=O)(=O)c1ccc(C)cc1	-1.1	/	/	0.3%	8	-32%[inhibitor]
19	COc1ccc(-c2ccc(SCc3cccnc3)nn2)cc1OC	2.1	-20%	-2.5	0.1%	15	6%
20	CCCN1CCN(CCNC(=O)Nc2cc(Cl)c(OC)cc2OC)CC1	-0.2	/	/	-5.2%	26	/
21	CCCOP(=O)(c1ccc(N(C)C)cc1)C(O)c1cc(OC)ccc1OC (configuration not stated)	0.7	8%	0.1	-2.6%	-18	13%
22	Cc1ccc(NC(=O)CCNC(=O)Cn2cnc3ccccc3c2=O)cc1F	-0.5	10%	1.8	/	-13	-18%
23	O=C(O)c1cc(-c2ccccc2)n(-c2ccc(Cl)cc2)n1	-0.7	-18%	-2.8	/	2	2%[15.4 µM]
24	O=C(c1cn[nH]c1)N1CCc2c([nH]c3ccccc23)C1c1c(F)cccc1Cl (configuration not stated)	1.4	?	5.1	/	-18	-13%[15.4 µM]
25	CNC(=O)COc1ccc(S(=O)(=O)Nc2ccc(C)cc2)cc1	0.6	5%	5.0	2.2%	-8	-6%
26	CC(OC(=O)C1=COCCO1)C(=O)c1ccc(Br)cc1 (configuration not stated)	2.0	?	/	/	16	?
27	COCCNC(=O)COc1ccc(Nc2ccccc2)cc1	0.3	-7%	3.9	-7.4%	14	?
28	O=C(NC1C/C(=N/O)c2cc3c(cc21)OCO3)C(F)(F)F (configuration not stated)	-0.1	5%	2.2	-7.9%	31	7%
29	CCOc1ccc(C(=O)Nc2ccc(S(=O)(=O)N3CCOCC3)cc2)cc1OCC	1.8	-4%	-0.2	-2.3%	12	30%
30	O=C(/C=C/c1ccc(Cl)cc1)NCc1ccco1	0.7	6%	1.2	?	-8	0%

The results go on.
#	Structure	TRPML1 ag	gsp antagonist	Menin MLL FP FL	ClpP mod	TRPML1 inh	gsp agonist
31	CCOC(=O)c1ccc(NCCc2ccc(OC)c(OC)c2)c(N)c1	1.8	-26%	-0.4	0.1%	19	-1%[15.4 µM]
32	CCCCCC(=O)Nc1ccc(Cc2ccncc2)cc1	0.5	-5%	1.4	0.8%	-6	-1%
33	O=C(N/N=C/c1ccccc1[N+](=O)[O-])c1cnccn1	0.4	2%	0.6	-1.4%	-4	-2%[15.4 µM]
34	Cc1ccc(Oc2cc(C)nc(-c3ccccc3O)n2)cc1	2.0	1%	4.5	0.6%	73	-23%
35	CCOC(=O)c1c(-c2ccccc2)oc2ccc(O)cc12	/	-16%	-1.9	-14%	/	18%
36	CCOC(=O)CSc1c(-c2ccccc2)c2cc(Cl)ccc2[nH]c1=O	3.6	-4%	-1.3	-2.4%	21	4%[15.4 µM]
37	COc1ccc(NC(=O)CN(C)S(=O)(=O)c2ccc3c(c2)n(C)c(=O)c(=O)n3C)cc1	-0.4	13%	/	-8.7%	-8	?
38	CC(=O)Nc1ccn(C2CC3OCC(NC(=O)C4CCCN4C(=O)OC(C)(C)C)C3O2)c(=O)n1 (configuration not stated)	0.1	/	-1.5	/	-7	/
39	COc1ccc(C(CNC(=O)COc2ccc(F)cc2Cl)N2CCCCC2)cc1 (configuration not stated)	-0.5	6%	/	1.4%	4	-6%
40	O=C(Nc1ccc(NC(=O)c2ccc(Br)cc2)c(Cl)c1)c1ccc(Br)cc1	0.0	/	/	-2.3%	17	/
41	COc1ccc(CCNC(=O)C2CCCN(S(=O)(=O)c3ccccc3)C2)cc1 (configuration not stated)	0.1	3%	/	-2.8%	5	1%
42	CCNc1nc(Nc2ccc(C)c(Cl)c2)c2cnn(C)c2n1	2.0	-11%	-0.5	?	21	-35%[inhibitor]
43	CCc1ccc(NC(=O)CN2C(=O)C(c3ccc(C)cc3)=NC23CCCCC3)cc1	1.6	/	/	-0.2%	2	/
44	COc1ccc(C)cc1NC(=O)CSc1nnc(COc2ccccc2)n1Cc1ccco1	3.2	-8%	8.4	-0.5%	-2	4%
45	CN1C(=O)NC2C1N(S(C)(=O)=O)CCN2S(C)(=O)=O (configuration not stated)	0.6	3%	3.1	-1.6%	-13	12%
46	COc1ccc(-n2ccnc(SCC(=O)NCc3ccc(C)cc3)c2=O)cc1Cl	1.9	-18%	/	?	-2	0%
47	CN(C(=O)CCn1c(=S)oc2ccccc21)c1ccc(F)cc1	0.7	-4%	-5.5	0.5%	8	-57%
48	Cc1cc(Cl)ccc1C(=O)C1CCCN(C(=O)c2snnc2C)C1 (configuration not stated)	0.5	-2%	2.3	1.5%	-1	-26%
49	CCOC(=O)c1c(C)c(C(=O)N2CCCCCC2)c(C)n1CC	-0.3	0%	-0.5	0.7%	-10	28%
50	Cc1c([N+](=O)[O-])c(C(=O)Nc2ccc3c(c2)OCCO3)nn1C	4.4	8%	2.2	1.5%	10	?
51	CC(C)CCN(C(=O)c1ccc(Br)cc1)c1c(N)n(Cc2ccccc2)c(=O)[nH]c1=O	-0.5	8%	/	1.2%	8	3%
52	COc1ccc(O)c(-c2[nH]ncc2C(=O)c2ccccc2C)c1	1.7	1%	2.7	-1.1%	10	0%
53	Cc1ccc(S(=O)(=O)NC(CC(C)C)C(=O)NCC(c2ccco2)N2CCCCC2)cc1 (configuration not stated)	-0.3	6%	/	-6.6%	-19	-23%
54	CN(C)C(=O)COc1ncnc2sc(-c3ccccc3)cc12	1.0	3%	2.0	-2.6%	-6	8%
55	CCc1ccc(C(=O)OCC(=O)NC2CCCC2)cc1	-1.0	3%	2.8	-1.6%	1	40%[15.4 µM]
56	C/C(=N\NC(=S)NCC(C)(C)C)c1cc(F)cc(F)c1O	1.5	-24%	2.6	/	10	9%[15.4 µM]
57	O=C1CC(=O)Nc2cc(S(=O)(=O)Nc3ccc(F)cc3Cl)ccc2N1	-0.1&0.8	5%	-3.9	0.9%&1.1%	5&-7	-3%
58	O=C(c1cc(-c2cccnc2)nc2ccccc12)N1CCCc2ccccc21	3.6	-6%	4.1	/	9	-4%[15.4 µM]
59	O=C(C1CCC1)N1CCc2cc(S(=O)(=O)Nc3ccc4c(c3)OCO4)ccc21	0.6	?	-0.6	2.2%	24	6%
60	CCn1ncc(NC(=S)Nc2ccc3c(c2)OCO3)c1C(N)=O	0.1	8%	-9.0	/	-1	33%

Structures listed so far with a thiophene ring, fused or not, in the order listed:
#	Structure	TRPML1 ag	gsp antagonist	Menin MLL FP FL	ClpP mod	TRPML1 inh	gsp agonist
1	CCNC(=O)c1ccc(N(C)S(=O)(=O)c2cccs2)cc1	0.0	2%	2.3	/	-5	-5%
9	Cc1ccc(NC(=O)CCC(=O)NNC(=O)c2cccs2)cc1C	0.4	7%	2.9	0.3%	-5	-30%
54	CN(C)C(=O)COc1ncnc2sc(-c3ccccc3)cc12	1.0	3%	2.0	-2.6%	-6	8%

(more compounds)
#	Structure	TRPML1 ag	gsp antagonist	Menin MLL FP FL	ClpP mod	TRPML1 inh	gsp agonist
61	CCOC(=O)c1ccccc1NC(=O)N[C@@H](C)C(=O)OC	-0.2	-3%	2.5	20µM*	-2	-22%
62	O=C(Oc1ccc2ccc(=O)oc2c1)c1ccccc1	1.0	9%	0.2	3.9%	30	3%
63	COc1cccc(N2CCN(C(=O)c3cc(C)oc3C)CC2)c1	0.0	2%	/	-0.7%	-6	-24%
64	Cc1cccc(C)c1NC(=O)CN1C(=O)N(C)Cc2ccccc21	-0.3	5%	0.1	/	-14	-16%
65	COc1cccc(CN2CC(C(=O)NCCCn3ccnc3C)CCC2=O)c1 (configuration not stated)	0.2	21%	0.7	-0.6%	47	-13%
66	CC(C)c1ccc(OCC(=O)N2CCN(C(=O)c3ccco3)CC2)cc1	-0.3	9%	/	-0.7%	-11	8%[15.4 µM]
